# Screening data deposited in PubChem by several laboratories.
# Rce1 inh – yeast Rce1p protease inhibitors, primary screen, biochemical, fluorescence, cell-free homogeneous | calls only | AID 2563, 2010 | yeast membranes, quenched prenylated peptide cleavage fluorescence | hit rate 0.27% among 290,000 | CAAX prenyl protease 2 (Saccharomyces cerevisiae (strain ATCC 204508 / S288c)), Q03530;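 active = fall in fluorescence gain of 50% or more versus controls, with final raw signal at or below 3038400; inconclusive = same 50% fall but final raw signal above 3038400; inactive = fall in fluorescence gain under 50%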;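 also: plate controls were neutral control wells for no effect and wells lacking membranes for full effect; tested at 10 µM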
# Target sequence (Q03530 whole entry, looked up): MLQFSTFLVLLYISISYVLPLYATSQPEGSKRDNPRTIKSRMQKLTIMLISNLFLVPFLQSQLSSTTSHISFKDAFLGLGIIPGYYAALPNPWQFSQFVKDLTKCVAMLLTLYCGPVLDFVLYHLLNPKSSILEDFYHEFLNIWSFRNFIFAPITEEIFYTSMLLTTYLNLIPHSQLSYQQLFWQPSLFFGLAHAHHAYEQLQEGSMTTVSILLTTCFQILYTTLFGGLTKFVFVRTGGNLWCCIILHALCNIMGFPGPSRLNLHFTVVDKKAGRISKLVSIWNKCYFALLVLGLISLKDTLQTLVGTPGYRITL
# eIF4H FP inh – human eIF4H binding inhibitors, primary screen, translation initiation inhibitor project, biochemical, uHTS, fluorescence polarization | Eukaryotic translation initiation factor 4H (Homo sapiens), Q15056 | eIF4H fluorescence polarization binding assay | inhibition, % at 35 µM | hit rate 0.94% among 290,000 | AID 2012, 2009;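 active = 50% or more with normal probe brightness, or confirmed in later tests; inconclusive = above 50% with abnormal brightness, or retests that disagree; inactive = below 50% or failed in later tests; about a fifth of its hits are not listed in these tables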;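 also: calls also rest on retests at 20 µM and on dose response follow-up; 0% = protein and probe with vehicle and 100% = probe without protein; strong numbers were not always called active; many hits fall short of the cut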
# HIV Env fusion – inhibitors of HIV-1 Env-driven cell-cell fusion, primary screen, HeLa-JRFL effector, CEM21 target cells, luciferase; inhibition, % at 12.3 µM; hit rate 1.1% among 360,000;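 active = mean replicate inhibition score of at least 50 and every replicate individually at or above 50; inconclusive = only one of the two criteria met; inactive = mean below 50 and not all replicates reaching 50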;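 also: 0% = plate neutral controls and 100% = maraviroc near 300 nM; one replicate is shown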
# CSC inhib – cancer stem cell viability inhibitors, primary screen, luminescence; cancer stem cell-like cells viability; hit rate 1.1% among 300,000; inhibition, % at 7.5 µM;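 active = mean at 75% or more and at least half the replicates too; inconclusive = mean and replicates disagree; tested in HMLE shEcad cells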;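 also: 0% = median of negative and 100% = median of positive control wells; the first replicate is given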
# MT1-MMP act inh – blockers of MT1-MMP proenzyme processing, primary screen, HT1080 RFP-PRO-GFP cells, GFP/RFP fluorescence; hit rate 0.061% among 360,000; Matrix metalloproteinase-14 (Homo sapiens), P50281; AID 651647, 2012; GFP/RFP ratio fluorescence, overnight; percent of plate control window, DMSO zero; GFP/RFP ratio change, % at 20 µM;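 active = GFP/RFP ratio change of at least 30% with cell ATP level not reduced by more than half and red fluorescence within 50% of control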; also: strong numbers were not always called active
#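 Assay system: HT1080 RFP-PRO-GFP cells | Dosing: 20 µM single dose, 1% DMSO | Incubation: Cells overnight before dosing, compound overnight, 37 °C, 5% CO2 | Evaluation: GFP/RFP fluorescence ratio | Control set: DMSO-only wells and HT1080 RFP-L50D-GFP cell wells as references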
# Yeast UUG start – modulators of yeast start codon fidelity, primary screen, whole organism, S. cerevisiae, single point, plate reader | S. cerevisiae UUG-firefly luciferase reporter, luminescence/redox ratio | activity score, % at 18.7 µM | hit rate 0.13% among 350,000;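 active = replicate mean at a twofold rise or more, about +100% in these data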;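 also: firefly luciferase made from a UUG start codon reports start codon fidelity; reporter light over untreated wells divided by growth signal over untreated wells; some hits fall short of that in this replicate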
# PABP FP inh – PABP poly(A) RNA binding inhibitors, primary screen, biochemical, fluorescence polarization, uHTS; Polyadenylate-binding protein 1 (Homo sapiens), P11940; inhibition, % at 35 µM; hit rate 1% among 290,000; AID 2014, 2009;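 active = 50% or more with normal probe brightness, or confirmed in later tests; inconclusive = above 50% with abnormal brightness, or retests that disagree; inactive = below 50% or failed in later tests; about a fifth of its hits are not listed in these tables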;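 also: calls also rest on retests at 20 µM and on dose response follow-up; controls were probe without protein and protein plus probe with vehicle; some compounds called inactive have numbers as strong as hits; many hits fall short of the cut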
# eIF4H FP inh retest – second read-out of eIF4H FP inh, no call of its own (marks repeat the call); inhibition, %; compound at 20 µM; confirmation average;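 mean of two retest wells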
# PABP FP inh retest – second read-out of PABP FP inh, no call of its own (marks repeat the call); inhibition, %; compound at 20 µM; confirmation repeats;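 mean of two retest wells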
# MT1-MMP act inh RFP – second read-out of MT1-MMP act inh, no call of its own (marks repeat the call); RFP signal change, %; measured here: RFP expression control read;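 0 = vehicle wells; hits needed this value within 50% of zero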
# Numbers without * were called inactive; i = inactive; ? = inconclusive; . = not tested or not shown.
SMILES,Rce1 inh,eIF4H FP inh,HIV Env fusion,CSC inhib,MT1-MMP act inh,MT1-MMP act inh RFP,Yeast UUG start,PABP FP inh,others
COc1ccc(CC(=O)n2nc(-c3cccnc3)nc2N)cc1,i,-5,-55,-13,3,2,-25,9,
O=C(Nc1cccnc1)c1cnn2c(C(F)F)cc(C3CC3)nc12,i,-5,.,-3,-5,-1,-1,-16,
COc1cc(NC(=O)C2=C(N3CCOCC3)/C(=C\c3ccc(N(C)C)cc3)CCC2)cc(OC)c1OC,i,21,-177,87*,.,.,.,-6,
Cc1ccc(CNC(=O)C2CCCN(S(=O)(=O)c3c(C)noc3/C=C/N(C)C)C2)cc1 (stereo unspecified),i,12,8,-1,-6,1,.,4,
Cc1onc(-c2ccccc2Cl)c1C(=O)N1CCN(Cc2ccc3c(c2)OCO3)CC1,i,10,20,-8,1,-5,-5,3,
O=C(NCCn1cc(SCc2ccccc2)c2ccccc21)c1c(F)cccc1F,i,3,19,53,-7,-16,8,1,
O=C1c2ccccc2C(=O)N1Cc1cnc(N2CCN(c3ccccc3)CC2)s1,i,-10,-50,33,-15,-14,.,-7,
Cc1c(NC(=O)/C=C/c2cn(-c3ccccc3)nc2-c2ccccc2)c(=O)n(-c2ccccc2)n1C,i,2,.,-2,4,-5,.,-4,
Cc1nnc(SCC(=O)N2CCCCC2)n1CC1CCCO1 (stereo unspecified),i,9,-17,-5,-1,0,-10,2,
CN(C)CC(C)(C)CNC(=O)C1CCN(Cc2ccccc2O)CC1,i,8,-33,-2,1,-3,-9,0,
CC(C)N(C(=O)[C@H]1C[C@H](CC(=O)NC(C)(C)C)C(=O)N2CCc3c([nH]c4cc(CCC(=O)N(C)C)ccc34)[C@]12C)C(C)C,.,.,-140,.,0,4,-1,.,
Cc1ccccc1-c1nc(CN2CCCC(C(=O)NCCCN3CCOCC3)C2)c(C)o1 (stereo unspecified),i,-2,-25,-3,11,8,-14,-5,
CCOC(=O)C1=C(c2ccc(OC)cc2)OC(N)=C(C#N)C1c1cccnc1 (stereo unspecified),i,7,-7,-5,0,2,-2,-3,
CC(C)C(=O)NNc1ccc(C(F)(F)F)cn1,i,0,-1,-11,1,0,-10,10,
Cc1ccc(/C=C/C(=O)N2CCN(Cc3ccccc3)CC2)o1,i,37,-40,-2,-4,3,.,17,
O=C(COC(=O)c1ccccn1)c1ccc([N+](=O)[O-])cc1,i,68,.,-2,-13,-3,5,-10,eIF4H FP inh retest=-1;PABP FP inh retest=8
CC1CN(C(=O)CSc2nnc(CNC(=O)c3ccc(S(=O)(=O)N(C)C)cc3)o2)CC(C)O1 (stereo unspecified),i,5,-105,-6,-4,1,-11,0,
Cc1cc(Cl)c2oc(C(=O)N(C)Cc3cc(C)[nH]n3)c(C)c2c1,i,-8,-10,-9,-1,-1,-16,-3,
CCc1nc2c(OCc3ccc(F)c(F)c3)cccn2c1N(C)C(=O)CC(C)C,.,.,9,.,-1,-3,-14,.,
O=C(Cn1ncn2c(cc3ccccc32)c1=O)NCCCc1ccccc1,i,-6,.,-1,.,.,-8,5,
CCOCc1[nH]c(=S)[nH]c(=O)c1Cc1ccc(OCC(C)C)cc1,.,9,25,-10,6,0,.,-7,
NC(=O)CCC(NS(=O)(=O)c1ccc(Cl)cc1)C(=O)NCc1ccccc1 (stereo unspecified),i,11,-11,9,.,.,.,2,
O=C(CCC1CCN(C(=O)CC2=CCCCC2)CC1)NCc1ccc(F)cc1,.,.,23,.,3,2,-9,.,
O/N=C(\c1ccccc1)C(O)c1ccccc1 (stereo unspecified),i,-24,-9,-11,-1,3,-21,-10,
O=C(c1cccc(Cl)c1)N1CCN(C(=O)c2ccco2)CC1,i,-2,.,-6,1,5,-1,-12,
# (continued)
SMILES,Rce1 inh,eIF4H FP inh,HIV Env fusion,CSC inhib,MT1-MMP act inh,MT1-MMP act inh RFP,Yeast UUG start,PABP FP inh,others
O=C(CNc1cccc([N+](=O)[O-])c1)N/N=C/c1ccc([N+](=O)[O-])o1,i,39,13,0,-5,-20,-10,27,
NCCN1CCN(CC(=O)N2c3ccccc3C(=O)Nc3cccnc32)CC1,i,.,-12,-9,1,2,-6,.,
COc1cc(/C=N/Nc2cccc(C)c2)ccc1OC(=O)c1cccs1,.,-2,9,44,2,2,.,1,
Cc1ccc(S(=O)(=O)NCCCNS(=O)(=O)c2ccccc2Br)cc1,.,.,-56,.,1,1,-3,.,
CCCCn1c(O)c(N=NC(=O)Cn2c(C(F)(F)F)nc3ccccc32)c2ccccc21,i,-6,.,-7,3,1,3,6,
COC(=O)c1sc(N)nc1C(C)(C)C,i,-3,.,-2,3,4,-10,3,
CCOc1cc(C(=O)OCC(=O)Nc2ccc(SC(F)F)cc2)cc(OCC)c1OCC,i,2,11,9,-4,-2,-11,12,
CC1=CN2C(=NC(=O)CC2(C)C(=O)N(CC(=O)NC2CCCC2)Cc2ccc(Cl)cc2)C=C1 (stereo unspecified),?,-1,5,-6,0,-1,-2,2,
CCOC(=O)c1nnn(-c2nonc2N)c1CN(CC)CC,i,-9,.,-3,5,8,-20,-6,
CCN(CC)S(=O)(=O)c1ccc(C(=O)NCCCn2ccnc2)cc1,i,9,12,0,1,-2,-1,-8,
O=C(O)/C=C/c1cn(Cc2ccccc2)nc1-c1cccs1,i,-10,13,-4,4,3,.,-5,
CCS(=O)(=O)N1CCN(c2cc3c(cc2[N+](=O)[O-])n(C)c(=O)n3C)CC1,i,-7,15,-14,6,-1,5,-5,
COc1cc2c3c(c1OC)C1(C=CC(=O)C=C1)CC3N(C(C)=O)CC2 (stereo unspecified),i,-10,.,-2,5,4,-1,12,
Cc1ccc(-c2nc(C(=O)NCCCN3CCOCC3)cc3c2[nH]c2ccccc23)cc1,i,-44,.,-12,4,-5,29,-1,
O=[N+]([O-])c1ccc(-c2cnc(SCc3ccccc3Cl)[nH]2)cc1,i,-2,.,57,0,-9,.,-10,
COc1cc(C(=O)OCCCOC(=O)c2cc(OC)c(OC)c(OC)c2)cc(OC)c1OC,i,-2,0,6,0,0,6,1,
O=C(/C=C/c1cccc([N+](=O)[O-])c1)NCCN1CCOCC1,i,2,.,-5,-1,-1,-22,-8,
Cc1ccc(OCC(=O)Nc2ccc(S(=O)(=O)N3CCOCC3)cc2)c([N+](=O)[O-])n1,i,1,-21,-20,1,-3,.,-5,
CCC1=C(OC(=O)N(CC)CC)N2C(=O)OC(=NCC3CC3)[C@]2(C)[C@H]2C1=CC[C@H]1C(=O)N(CC)C(=O)[C@H]12,i,3,-6,-9,3,-1,-37,9,
CC(=O)N/N=C(\C)c1cccc(NC(=O)c2cccs2)c1,i,2,.,0,2,-1,.,10,
O=C(O)c1ccc(NS(=O)(=O)Cc2ccc(Cl)c(Cl)c2)cc1,.,.,2,.,-5,-3,1,.,
CC(=O)N1CCN(C(C)=O)c2ccccc21,.,.,-5,.,3,1,-15,.,
CC(C)CN1C(=O)c2ccc(C(=O)Nc3ccccn3)cc2C1=O,i,6,-122,-1,-1,1,-20,5,
O=C(Cn1ccc([N+](=O)[O-])n1)N1CCCCCC1,i,-6,5,-5,4,3,-3,-7,
CCOC(=O)C1(C(F)(F)F)N=C(C(F)(F)F)Nc2ccc(F)cc21 (stereo unspecified),i,-7,9,24,1,5,.,-11,
# Other results follow:
SMILES,Rce1 inh,eIF4H FP inh,HIV Env fusion,CSC inhib,MT1-MMP act inh,MT1-MMP act inh RFP,Yeast UUG start,PABP FP inh,others
COc1cccc(C(=O)Nc2ccc(F)c(F)c2F)c1,i,-9,.,-2,5,5,-13,-5,
O=C(CC(O)(c1ccccc1)C(F)(F)F)c1cccs1 (stereo unspecified),i,4,.,-6,-1,5,-7,6,
CC(C)n1c(SCC(=O)Nc2nncs2)nnc1-c1ccco1,i,72*,.,-6,.,.,.,41*,eIF4H FP inh retest=98*;PABP FP inh retest=90*
CC(C)(C)OC(=O)N1CCCC(C(=O)Nc2cccc(C(=O)NC3CC3)c2)C1 (stereo unspecified),.,.,-26,.,2,2,-2,.,
O=C(NNC(=O)C1C2C=CC(C2)C1C(=O)O)c1ccccc1O (stereo unspecified),i,2,-6,.,-3,2,16,13,
CC(C)NC(=O)NC(=O)COC(=O)c1ncc(Cl)c(Cl)c1Cl,i,11,20,-1,3,1,.,19,
COc1ccc(NC(=O)C2CCCN(S(=O)(=O)c3c(C)n[nH]c3C)C2)cc1OC (stereo unspecified),i,0,9,-5,0,-2,.,-6,
Cc1cccc(C(=O)N[C@H](C(=O)Nc2nc3ccc(S(C)(=O)=O)cc3s2)C(C)C)c1,i,-12,15,-12,-8,-7,.,2,
CC(=O)Nc1ccc2c(c1)nc1n2CCSC1,i,3,-16,14,-2,0,-23,0,
CC(=O)N(CN1C(=O)CCC1=O)c1ccc(Cl)c(Cl)c1,i,1,12,-12,1,7,.,24,
